Bioassay records: PubChem, Broad Institute
Ecoli rRNA inh – inhibitors of bacterial rRNA selective over humanized ribosomes. GFP signal change (wild-type ribosome), % (no concentration beside the values). 350,000 tested, 1.6% active. AID 720706. E. coli WT GFP vs humanized-ribosome RFP mutants, fluorescence, 24 h; stronger effect = lower value; DMSO median 0, no signal -100;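 active = significant combined selectivity score with lowered wild-type GFP, culture density cut under 30%, mutant RFP and density less affected; inactive = any of these conditions unmet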; note: one replicate is shown; some compounds called inactive have numbers as strong as hits
FGF22 binding – shifts melting point of recombinant human FGF22; AID 651658; calls only at 9.99 µM; 340,000 tested, 1.5% active; recombinant FGF22 thermal shift, SYPRO orange fluorescence; percent of sucrose octasulfate shift, DMSO zero;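 active = melting point raised past a set limit in the mean and every replicate; three in four hits are not shown here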
Target sequence (Q9HCT0 whole entry, looked up): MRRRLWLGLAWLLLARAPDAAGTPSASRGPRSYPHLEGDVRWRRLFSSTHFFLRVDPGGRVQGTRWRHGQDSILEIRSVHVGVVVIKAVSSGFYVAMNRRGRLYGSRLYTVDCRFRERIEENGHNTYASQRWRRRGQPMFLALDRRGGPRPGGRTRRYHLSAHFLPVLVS
AF4-AF9 inh – MLL-AF4/AF9 protein interaction inhibition | AlphaScreen, biotin-AF4 peptide binding to FLAG-AF9 | inhibition, % at 10 µM | 350,000 tested, 0.47% active | AID 651704;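 active = every replicate reaching a set inhibition limit, whatever the replicate mean, cut at about 25% in these data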;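 note: 0% = plate neutral control median and 100% = total signal loss; the record names both 10 and 1 µM as test concentration; the first replicate is given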
Target sequence (P42568 whole entry, looked up): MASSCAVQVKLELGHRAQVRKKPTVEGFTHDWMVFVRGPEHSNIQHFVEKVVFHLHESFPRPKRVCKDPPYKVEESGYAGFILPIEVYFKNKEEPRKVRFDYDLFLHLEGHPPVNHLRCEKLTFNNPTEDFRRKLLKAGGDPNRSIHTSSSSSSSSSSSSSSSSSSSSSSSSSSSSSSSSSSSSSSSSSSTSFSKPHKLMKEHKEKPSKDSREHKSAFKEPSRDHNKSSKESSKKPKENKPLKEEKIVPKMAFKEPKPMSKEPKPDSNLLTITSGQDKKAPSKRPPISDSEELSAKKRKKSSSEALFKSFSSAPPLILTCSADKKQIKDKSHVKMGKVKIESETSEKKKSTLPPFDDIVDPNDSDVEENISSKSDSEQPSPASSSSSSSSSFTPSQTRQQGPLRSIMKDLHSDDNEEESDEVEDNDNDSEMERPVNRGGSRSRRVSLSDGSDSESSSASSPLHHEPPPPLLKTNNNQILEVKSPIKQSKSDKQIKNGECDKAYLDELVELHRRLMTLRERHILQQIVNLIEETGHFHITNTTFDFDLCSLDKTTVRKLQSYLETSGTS
Ecoli rRNA inh OD600 – further read-out of Ecoli rRNA inh, marked with its call; OD600 change, %; measured here: OD600 growth;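 optical density of the mix in the first replicate; 0 = DMSO median and -100 = no signal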
Ecoli rRNA inh RFP – also measured in Ecoli rRNA inh; calls as there; RFP signal change, %; measured here: RFP humanized mutant strains;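 first replicate; 0 = DMSO median and -100 = no signal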
Numbers without * were called inactive; i = inactive; . = not tested or not shown; + = active, no number; & = joins results of further samples. An excerpt. The share of hits here may be higher or lower than overall.

Ecoli rRNA inh,Ecoli rRNA inh OD600,Ecoli rRNA inh RFP,FGF22 binding,AF4-AF9 inh,SMILES
-5,-10,5.5,i,-4.0,C[C@@H]1CN([C@H](C)CO)C(=O)c2cccc(NC(=O)CCCCCC(=O)Nc3ccccc3N)c2O[C@@H]1CN(C)Cc1ccc(-c2ccccc2)cc1
-2,-6,-0.4,i,3.0,CC(C)NC(=O)N(C)C[C@H]1Oc2ccc(NC(=O)Nc3ccc(C(F)(F)F)cc3)cc2CC(=O)N([C@H](C)CO)C[C@H]1C
-4,-11,4.6,i,1.9,CC(=O)Nc1c(Br)cc2c(c1Br)Cc1cc(Br)ccc1-2
4,1,-0.3,i,1.2,Cc1cc(OCC(=O)Nc2c(C(C)C)cccc2C(C)C)no1
-2,-3,-1.7,i,-12,O=C(C[C@@H]1CC[C@@H]2[C@H](COC[C@H](O)CN2S(=O)(=O)c2ccc(Cl)cc2)O1)NCCN1CCCC1
11,14,0.4,i,-2.4,CCCC[C@@H]1CC2=C(C(=O)OC(C)(C)O2)[C@H](c2ccc(C(C)C)cc2)O1
1,-1,0.7,i,0.0,C[C@@H]1CCCCO[C@@H](CN(C)S(=O)(=O)c2ccc(F)cc2)[C@@H](C)CN([C@@H](C)CO)C(=O)c2cc(NC(=O)Nc3cccc4ccccc34)ccc2O1
2,-3,-3.2,i,0.0,CNC[C@H]1OCCCC[C@@H](C)Oc2ccc(NC(=O)Nc3ccccc3)cc2C(=O)N([C@H](C)CO)C[C@@H]1C
6,7,-0.4,i,-1.8,CCNC(=O)C1(C)CCCN(C(=O)c2cc(C)nn2C(C)(C)C)C1 (centres undefined)
6,30,6.8,i,-2.2,COc1cccc(-c2cccc(-c3nc(C(=O)Nc4ccc(-c5ccccc5)cc4)cc4c3[C@@H](CCO)N(S(=O)C(C)(C)C)C4)c2)c1 (some centres undefined)
2,5,-0.9,i,0.3,C[C@H]1CN([C@@H](C)CO)C(=O)Cc2cc(NS(=O)(=O)c3cn(C)cn3)ccc2O[C@H]1CN(C)S(=O)(=O)c1ccc(Cl)cc1
-8,1,4.4,i,4.1,CN(C)CCCNC(=O)C[C@@H]1CC[C@H]2[C@@H](COC[C@@H](O)CN2Cc2ccc(Cl)c(Cl)c2)O1
5,-2,-0.2,i,-1.0,CC(C)NC(=O)Nc1cccc2c1O[C@@H](CN(C)Cc1ccccc1)[C@@H](C)CN([C@H](C)CO)C2=O
0,-7,0.6,i,-0.4,CO[C@H]1CN(C)C(=O)c2cc(NC(=O)c3ccccc3)ccc2OC[C@H](C)N(C(=O)C2CC2)C[C@@H]1C
-4,-9,1.0,i,-2.4,COC(=O)C[C@H]1CC[C@H]2[C@H](COc3ccc(NC(=O)Nc4ccc(C)cc4)cc3C(=O)N2C)O1
-5,-6,0.2,i,-2.3,C[C@@H]1CN([C@@H](C)CO)C(=O)c2cccc(NS(=O)(=O)c3ccc(Cl)cc3)c2O[C@H]1CN(C)C(=O)Nc1ccc(C(F)(F)F)cc1
1,3,2.3,i,0.6,COCCNC(=O)C[C@@H]1C[C@H]2c3cc(NC(=O)NC4CCCC4)ccc3O[C@H]2[C@H](CO)O1
11,2,13,i,-0.3,Cc1ccccc1NC(=O)Cc1nc(COC(=O)/C=C/c2ccc(F)cc2)cs1
-2,5,1.9,+,-3.1,COCC(=O)N(C)C[C@H]1Oc2cc(C#Cc3ccccc3)ccc2S(=O)(=O)N([C@H](C)CO)C[C@H]1C
3,1,0.7,i,-0.4,Cc1noc(C)c1S(=O)(=O)N(C)C[C@H]1Oc2ccc(NS(=O)(=O)c3cccs3)cc2CC(=O)N([C@@H](C)CO)C[C@H]1C

A different layout for three compounds above.
CC(=O)Nc1c(Br)cc2c(c1Br)Cc1cc(Br)ccc1-2
  Ecoli rRNA inh = -4; Ecoli rRNA inh OD600 = -11; Ecoli rRNA inh RFP = 4.6; FGF22 binding = i; AF4-AF9 inh = 1.9

Cc1cc(OCC(=O)Nc2c(C(C)C)cccc2C(C)C)no1
  Ecoli rRNA inh = 4; Ecoli rRNA inh OD600 = 1; Ecoli rRNA inh RFP = -0.3; FGF22 binding = i; AF4-AF9 inh = 1.2

O=C(C[C@@H]1CC[C@@H]2[C@H](COC[C@H](O)CN2S(=O)(=O)c2ccc(Cl)cc2)O1)NCCN1CCCC1
  Ecoli rRNA inh = -2; Ecoli rRNA inh OD600 = -3; Ecoli rRNA inh RFP = -1.7; FGF22 binding = i; AF4-AF9 inh = -12

4 entries drawn at random from those above:
Ecoli rRNA inh,Ecoli rRNA inh OD600,Ecoli rRNA inh RFP,FGF22 binding,AF4-AF9 inh,SMILES
-8,1,4.4,i,4.1,CN(C)CCCNC(=O)C[C@@H]1CC[C@H]2[C@@H](COC[C@@H](O)CN2Cc2ccc(Cl)c(Cl)c2)O1
5,-2,-0.2,i,-1.0,CC(C)NC(=O)Nc1cccc2c1O[C@@H](CN(C)Cc1ccccc1)[C@@H](C)CN([C@H](C)CO)C2=O
1,3,2.3,i,0.6,COCCNC(=O)C[C@@H]1C[C@H]2c3cc(NC(=O)NC4CCCC4)ccc3O[C@H]2[C@H](CO)O1
-2,-3,-1.7,i,-12,O=C(C[C@@H]1CC[C@@H]2[C@H](COC[C@H](O)CN2S(=O)(=O)c2ccc(Cl)cc2)O1)NCCN1CCCC1

(more compounds)
Ecoli rRNA inh,Ecoli rRNA inh OD600,Ecoli rRNA inh RFP,FGF22 binding,AF4-AF9 inh,SMILES
-3,-7,1.3,i,-6.3,CC(C)CC#Cc1cnc2c(c1)C(=O)N([C@H](C)CO)C[C@@H](C)[C@@H](CN(C)Cc1ccccn1)O2
-6,-8,3.1,i,3.3,COCC(=O)Nc1ccc2c(c1)C(=O)N(C)C[C@H](OC)[C@@H](C)CN(Cc1ccccc1)[C@H](C)CO2
4,8,-0.6,i,-1.0,COCC(=O)N(C)C[C@@H]1Oc2ncc(C#Cc3ccccc3)cc2C(=O)N([C@@H](C)CO)C[C@@H]1C
2,5,-1.0,i,-3.2,CNC(=O)C[C@@H]1CC[C@H]2[C@@H](COc3ccc(NC(=O)c4ccc(F)cc4)cc3C(=O)N2C)O1
-15,-21,-11,i,3.5,c1ccc(-c2nc3ccccc3n2C(c2ccccc2)c2nc3ccccc3[nH]2)cc1 (centres undefined)
4,8,-1.5,i,3.6,COc1cccc(NC(=O)N[C@H]2CC[C@@H](CC(=O)NCc3ccncn3)O[C@H]2CO)c1
5,6,-6.9,i,-5.2,CNC(=O)C[C@H]1CC[C@@H]2[C@H](COC[C@@H](O)CN2Cc2ccncc2)O1
-1,-2,0.0,i,1.0,OC[C@@H]1CN(Cc2ccc3c(c2)OCO3)C[C@H](n2cnc3c(N4CCOCC4)ncnc32)O1
-6,-15,-0.7,i,-5.3,CC1(C)CC(=O)C=C(c2n[nH]nc2-c2ccc(F)c(F)c2)C1
-1,6,0.7,i,-2.4,Cc1noc(C)c1S(=O)(=O)N(C)C[C@@H]1OCCCC[C@H](C)Oc2ccc(NC(=O)NC(C)C)cc2C(=O)N([C@@H](C)CO)C[C@H]1C
-1,4,-1.9,i,-1.7,CO[C@@H]1CN(C)C(=O)c2ccc(NC(=O)C3CCCC3)cc2OC[C@H](C)N(C)C[C@@H]1C
-1,-11,2.9,i,2.8,COc1ccc2c3c(n(C)c2c1)[C@@H](CO)N(Cc1ccccc1)CC31CCN(CC2CC2)CC1
-1,-3,1.4,i,0.3,CO[C@H]1CN(C)C(=O)c2cc(NS(=O)(=O)c3ccccc3)ccc2OC[C@H](C)N(Cc2cccnc2)C[C@@H]1C
2,2,-0.9,i,-1.2,COCC#Cc1cnc2c(c1)C(=O)N([C@H](C)CO)C[C@@H](C)[C@@H](CN(C)S(=O)(=O)c1ccccc1)O2
-48,-73,-16,i,3.8,COc1cccc(Cn2cnc(-c3ccccc3OC)c2-c2cc(C)cc(C)c2)c1
14,14,1.4,i,-0.2,CC(=O)NC1CCC(=O)C=C1c1ccccc1 (centres undefined)
-8,-12,-0.9,i,-1.0,C[C@H](CO)N1C[C@H](C)[C@H](CN(C)Cc2ccc(Cl)c(Cl)c2)Oc2ccc(NC(=O)CCC(F)(F)F)cc2CC1=O
1,2,-2.6,i,-3.2,C[C@@H]1CN([C@@H](C)CO)C(=O)c2cccc(NC(=O)Nc3ccccc3)c2O[C@H]1CN(C)C(=O)Nc1ccccc1
0&6,0&10,1.8&-2.1,i,-20&1.6,CCNC(=O)c1cc2c(c(-c3cccc(-c4cncnc4)c3)n1)[C@H](CCO)N(C(C)=O)C2
-17,-42,28,i,6.9,CCC(=O)N(C)C[C@@H]1Oc2cc(C#CCC3CCCC3)ccc2S(=O)(=O)N([C@H](C)CO)C[C@H]1C
2,3,1.1,i,1.0,CC(C)NC(=O)N1[C@H](CO)[C@@H]2c3ccccc3N(C(=O)Nc3ccccc3)C[C@@H]21
3,5,-1.7,i,-1.0,CC(=O)Nc1cnc(-c2cccc(C(=O)N3CCOCC3)c2)cn1
0,4,-2.9,i,-2.5,Cc1noc(C)c1NC(=O)Nc1cccc2c1O[C@@H](CN(C)C(=O)NC1CCCCC1)[C@H](C)CN([C@H](C)CO)C2=O
2,6,-1.3,i,-0.5,O=C(NCc1ccc(F)cc1)[C@@H]1[C@@H](CO)[C@@H]2Cn3c(ccc(-c4cccnc4)c3=O)[C@H]1N2
-1,-1,-2.3,i,-0.5,CC(C)NC(=O)Nc1ccc2c(c1)C(=O)N([C@H](C)CO)C[C@H](C)[C@H](CN(C)C(=O)Nc1ccc3c(c1)OCO3)OCCCC[C@H](C)O2
-2,8,-2.6,i,-0.3,CCCNC(=O)[C@H]1[C@H](CO)[C@H]2Cn3c(cccc3=O)[C@H]2N1C(=O)C1CCC1
-3,2,3.5,i,7.3,NC(=S)N=Nc1ccc(O)cc1
0,0,-1.0,i,3.0,CC(=O)O[C@@H](C[C@@H](C)C1=C2C[C@H](O)C3[C@@]4(C)CCC(=O)C(C)(C)C4CC[C@]3(C)[C@@]2(C)CC1)[C@H]1OC1(C)C (some centres undefined)
1,9,6.0,i,2.3,CC(C)CC#Cc1cnc2c(c1)C(=O)N([C@@H](C)CO)C[C@@H](C)[C@@H](CN(C)C(=O)c1cccc(F)c1)O2
-3,-12,25,i,7.0,CCC(=O)N(C)C[C@@H]1Oc2cc(C#CC3CCCCC3)ccc2S(=O)(=O)N([C@@H](C)CO)C[C@@H]1C
-5,-11,9.5,i,4.0,COc1ccc(S(=O)(=O)Nc2ccc3c(c2)C(=O)N([C@H](C)CO)C[C@@H](C)[C@H](CN(C)Cc2ccc(C(F)(F)F)cc2)OCCCC[C@@H](C)O3)cc1
-58,-79,-21,i,-2.7,CC(O)(c1ccccc1)c1nc(-c2cc3ccccc3o2)cs1 (centres undefined)
2,3,0.9,i,0.7,COc1ccc(C(=O)N2CCN(S(=O)(=O)c3ccc4c(c3)OCCO4)CC2)cc1
0,3,-1.1,i,-2.6,CO[C@H]1CN(C)C(=O)c2ccc(NS(=O)(=O)c3cccc(F)c3)cc2OC[C@H](C)NC[C@H]1C
4,18,-2.8,i,0.4,CCNC(=O)C[C@H]1CC[C@H]2[C@@H](COC[C@H](O)CN2C(=O)Nc2ccc3c(c2)OCO3)O1
3,11,0.1,i,-0.3,CNC(=O)C[C@@H]1CC[C@H]2[C@@H](COC[C@H](O)CN2Cc2ccccc2F)O1
1,-7,0.6,i,-1.3,O=C(N[C@H]1C=C[C@@H](CC(=O)N2CCN(c3ccccc3)CC2)O[C@@H]1CO)c1ccccc1
4,3,0.4,i,-2.0,CO[C@H]1CN(C)C(=O)c2ccc(NC(=O)C3CC3)cc2OC[C@@H](C)NC[C@H]1C
-2,0,4.1,i,8.0,CC(=O)NC(c1ccccc1)c1nc(-c2cccc(F)c2)cs1 (centres undefined)
-4,-5,-3.1,i,0.5,C[C@@H]1CN([C@@H](C)CO)S(=O)(=O)c2ccc(C#C[C@@H](C)O)cc2O[C@H]1CN(C)C(=O)C1CCCCC1
-2,0,0.0,i,6.1,C[C@@H]1CCCCO[C@H](CN(C)CC2CC2)[C@H](C)CN([C@@H](C)CO)C(=O)c2cc(NC(=O)c3ccccc3)ccc2O1
-23,-25,4.9,i,5.3,O=C(NCC[C@@H]1CC[C@H](NC(=O)C2CC2)[C@H](CO)O1)Nc1ccc(Cl)cc1
11,3,3.5,i,7.9,CO[C@H]1CC[C@H]2CCN(C)C(=O)[C@H](C)[C@H](OC)CN(C)C(=O)c3cc(C#N)ccc3OC[C@@H]1O2
-11,-39,36,.,4.7,Fc1ccc(-c2ccc3c(n2)CCCN3Cc2ccccc2C(F)(F)F)cc1
1,-9,0.2,i,-0.6,C[C@@H]1CN([C@H](C)CO)C(=O)Cc2cc(NC(=O)C3CC3)ccc2O[C@@H]1CN(C)S(=O)(=O)c1ccc(Cl)cc1
-2,-8,2.1,i,3.0,C[C@H]1CN([C@@H](C)CO)C(=O)c2cc(C#Cc3ccccc3F)cnc2O[C@@H]1CN(C)C(=O)Cc1ccncc1
-4,-12,-0.2,i,5.1,C/C=C/c1ccc2c(c1)O[C@H](CN(C)C(=O)c1ccccc1F)[C@@H](C)CN([C@@H](C)CO)S2(=O)=O
1,6,2.8,i,4.3,C[C@@H]1CN([C@@H](C)CO)C(=O)c2cc(NC(=O)Cc3cn(C)c4ccccc34)ccc2O[C@@H]1CN(C)Cc1ccncc1
